RGS16-Gao HTS = regulators of human RGS16-Galphao interaction | O15492+P09471 | bead-based flow cytometry RGS16-Galphao binding, fluorescence; actives lie on both sides | binding response (% of control), % at 10 µM | 220,000 tested, 0.38% active | AID 1441;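 active means below 25% or above 175%, edge rows of some plates excepted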;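 further: Galphao activated by GDP with aluminum fluoride before binding; 100% = wells without compound and 0% = beads without RGS; some results beyond the cut were filed as inactive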
Insulin prom inh = TRM-6 insulin promoter activity inhibition; TRM-6 cells (human fetal islet line), insulin promoter-eGFP reporter, imaging; reporter expression induced with tamoxifen; inhibition, % at 2 µM; 130,000 tested, 0.9% active;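 active means inhibition above the mean plus 3 SD, with well images judged a real hit on visual review, cut at about 60% in these data, passing the limit was not always enough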
GALR2 ag = activates the human galanin receptor 2; GALR2-expressing cells, agonist activation read-out; 140,000 tested, 0.48% active; O43603; activation, %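 (tested at 5 µM)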;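 active means above mean plus 3 SD of all compounds, about 5% in these data, not always enough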;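 further: 0% = vehicle buffer wells and 100% = reference agonist at full effect; tested in CHO reporter cells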
HSV replic up = HSV replication enhancement; maximum fold increase; 220,000 tested, 0.005% active; HSV replication augmentation in cells, fold increase; AID 1956;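 active means peak rise of 1.5-fold or more in the series; tested in PC3 cells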;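 further: first round at 10 µM; read as green reporter fluorescence; hits show the peak of a series up to 25 µM; 1 = signal of infected wells without compound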
PKD1 kinase inh = blocks activity of human protein kinase D1; PKD1 kinase fluorescence polarization assay; inhibition, %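 (about 10 µM by stock and volumes)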; 200,000 tested, 0.056% active;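 active means inhibition of 50% or more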;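 further: controls were vehicle for no effect and a reference inhibitor for full effect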
Target sequence (Q15139 whole entry, looked up): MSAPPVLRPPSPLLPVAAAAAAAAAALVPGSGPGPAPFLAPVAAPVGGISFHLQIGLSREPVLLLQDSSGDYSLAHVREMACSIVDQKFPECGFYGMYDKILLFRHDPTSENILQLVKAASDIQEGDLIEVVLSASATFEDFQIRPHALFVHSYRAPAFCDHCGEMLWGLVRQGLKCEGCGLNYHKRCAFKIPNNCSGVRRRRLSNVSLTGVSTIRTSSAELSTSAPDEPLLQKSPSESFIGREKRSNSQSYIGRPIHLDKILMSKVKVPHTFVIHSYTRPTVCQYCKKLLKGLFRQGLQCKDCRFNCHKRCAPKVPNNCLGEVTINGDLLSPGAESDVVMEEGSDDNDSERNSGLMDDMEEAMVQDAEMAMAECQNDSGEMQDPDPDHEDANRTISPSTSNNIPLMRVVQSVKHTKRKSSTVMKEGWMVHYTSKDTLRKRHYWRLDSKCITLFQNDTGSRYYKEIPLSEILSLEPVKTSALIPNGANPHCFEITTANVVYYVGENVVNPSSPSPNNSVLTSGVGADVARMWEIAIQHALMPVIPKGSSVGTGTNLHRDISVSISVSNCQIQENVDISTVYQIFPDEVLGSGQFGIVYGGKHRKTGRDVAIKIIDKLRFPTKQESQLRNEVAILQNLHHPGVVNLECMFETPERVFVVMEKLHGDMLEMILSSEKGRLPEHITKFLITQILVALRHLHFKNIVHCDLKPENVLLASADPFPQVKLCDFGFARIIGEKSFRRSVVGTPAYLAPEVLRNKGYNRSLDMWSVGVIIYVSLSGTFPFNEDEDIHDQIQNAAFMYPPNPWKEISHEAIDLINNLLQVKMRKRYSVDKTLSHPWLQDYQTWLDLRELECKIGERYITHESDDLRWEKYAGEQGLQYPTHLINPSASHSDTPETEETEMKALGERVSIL
Insulin prom inh cell count = recorded beside Insulin prom inh, whose call it bears; normalized cell count, %; measured here: cell count, toxicity; reference of the scale not given here;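 cells exposed to compound for 48 h; stained nuclei by imaging scaled within each plate; lower means fewer cells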
HSV replic up primary fold = further read-out of HSV replic up, marked with its call; fold increase; compound at 10 µM; measured here: primary screen fold increase 10 uM; tested in PC3 cells;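 GFP signal in the first replicate; 1 = infected wells without compound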
* marks the source's active call; other numbers are inactive results; i = inactive; / = no result given. Rows were taken by chance. Share with any hit: about 1.2%.

SMILES	RGS16-Gao HTS	Insulin prom inh	Insulin prom inh cell count	GALR2 ag	HSV replic up	HSV replic up primary fold	PKD1 kinase inh
Cc1ccc(NC(=O)CN(Cc2ccccc2)S(C)(=O)=O)cc1C	100	-32	71	-2.5	i	1.3	-5
COC(=O)N1CC(=O)N(OC)C1c1ccc(Cl)cc1Cl (stereo unspecified)	107	0	43	0.5	i	0.97	14
Cc1ccc(CSCC(=O)NCc2ccc3c(c2)OCO3)cc1	81	/	/	/	i	1.1	/
Clc1ccc(-c2nnc(COc3ncnc4sccc34)o2)cc1	107	7	63	-1.6	i	1	5
CC(NC(=O)CN(C1CCCCC1)S(C)(=O)=O)c1ccccc1 (stereo unspecified)	94	-89	60	0.4	i	0.77	-2
O=C(/C=C/c1cn(CC(O)CN2CCCCCC2)c2ccccc12)c1cccs1 (stereo unspecified)	118	-117	88	1.7	i	1.3	6
O=S(=O)(c1cccc(-c2n[nH]c(=S)n2C2CCCC2)c1)N1CCOCC1	98	18	143	/	i	0.99	-7
CC(=O)NC(=S)Nc1ccc2oc(-c3cc(F)c(F)cc3Cl)nc2c1	100	/	/	/	i	0.94	-7
CCN(C1CCCCC1)S(=O)(=O)c1ccc(S(=O)(=O)N2CCN(CCC#N)CC2)cc1	111	/	/	0.2	i	0.95	-3
O=C(C1=C[C@@H](c2csc3ccccc23)C[C@@H](OCCCCO)O1)N1CCN(Cc2ccc3c(c2)OCO3)CC1	100	/	/	/	i	0.86	7
COc1ccc(C)cc1NC(=O)NCc1ccco1	97	-5	94	/	i	1	4
Cc1ccc(NC(=O)c2nc[nH]c2C(=O)N[C@@H](CCCCNC(=O)OC(C)(C)C)C(=O)OC(C)(C)C)cc1	107	/	/	/	i	0.74	/
COc1ccc(S(=O)(=O)N2CCOCC2)cc1NC(=O)COc1ncnc2ccccc12	57	-16	116	-0.4	i	1	-7
Cc1cc(C)n(-c2ccc(C(F)(F)F)cc2[N+](=O)[O-])n1	90	0	103	/	/	/	-9
O=C(NNC(=O)c1ccccc1[N+](=O)[O-])c1cccs1	93	/	/	/	i	0.97	0
CN(C)CCCN1C(=O)c2cccc3c([N+](=O)[O-])ccc(c23)C1=O	101	i	84	0.8	/	/	8
COCCNC(=S)c1ccc(OC)cc1	113	-433	62	-1.2	i	1	-2
CCC(C)NC(=O)[C@H](CSCc1ccccc1)N1Cc2ccccc2C1=O (stereo partly specified)	99	-50	101	-0.1	/	/	-3
COc1cc(/C=C(\C#N)C(=O)Nc2ccc(SC(F)F)cc2)cc(OC)c1OC	98	/	/	-3.3	i	0.96	-4
Cc1cccc2sc(NC(=O)CSc3nc4ccccc4o3)nc12	100	/	/	-2.9	i	1	2
Cc1[nH]c2ccccc2c1N=Nc1cc(C(=O)O)cc(C(=O)O)c1	96	-20	148	/	i	1.3	-4
COc1ccccc1CN1CCNC(=O)C1CC(=O)NCc1cn(C)nc1C (stereo unspecified)	97	-73	85	/	i	1	2
COCCNC(=O)c1cc(C)ccc1C	96	-10	98	/	i	0.95	-4
O=C(c1csc2c1CCCC2)N1CCN(c2ccc(F)cc2)CC1	60	56	162	-0.3	i	1	-6
CCCSc1nnc(NC(=O)Nc2ccccc2OC)s1	132	/	/	/	i	1	/

In another format: 17 of the compounds above
Molecule,RGS16-Gao HTS,Insulin prom inh,Insulin prom inh cell count,GALR2 ag,HSV replic up,HSV replic up primary fold,PKD1 kinase inh
O=S(=O)(c1cccc(-c2n[nH]c(=S)n2C2CCCC2)c1)N1CCOCC1,98,18,143,/,i,0.99,-7
CC(=O)NC(=S)Nc1ccc2oc(-c3cc(F)c(F)cc3Cl)nc2c1,100,/,/,/,i,0.94,-7
CCN(C1CCCCC1)S(=O)(=O)c1ccc(S(=O)(=O)N2CCN(CCC#N)CC2)cc1,111,/,/,0.2,i,0.95,-3
O=C(C1=C[C@@H](c2csc3ccccc23)C[C@@H](OCCCCO)O1)N1CCN(Cc2ccc3c(c2)OCO3)CC1,100,/,/,/,i,0.86,7
COc1ccc(C)cc1NC(=O)NCc1ccco1,97,-5,94,/,i,1,4
Cc1ccc(NC(=O)c2nc[nH]c2C(=O)N[C@@H](CCCCNC(=O)OC(C)(C)C)C(=O)OC(C)(C)C)cc1,107,/,/,/,i,0.74,/
COc1ccc(S(=O)(=O)N2CCOCC2)cc1NC(=O)COc1ncnc2ccccc12,57,-16,116,-0.4,i,1,-7
Cc1cc(C)n(-c2ccc(C(F)(F)F)cc2[N+](=O)[O-])n1,90,0,103,/,/,/,-9
O=C(NNC(=O)c1ccccc1[N+](=O)[O-])c1cccs1,93,/,/,/,i,0.97,0
CN(C)CCCN1C(=O)c2cccc3c([N+](=O)[O-])ccc(c23)C1=O,101,i,84,0.8,/,/,8
COCCNC(=S)c1ccc(OC)cc1,113,-433,62,-1.2,i,1,-2
CCC(C)NC(=O)[C@H](CSCc1ccccc1)N1Cc2ccccc2C1=O (stereo partly specified),99,-50,101,-0.1,/,/,-3
COc1cc(/C=C(\C#N)C(=O)Nc2ccc(SC(F)F)cc2)cc(OC)c1OC,98,/,/,-3.3,i,0.96,-4
Cc1cccc2sc(NC(=O)CSc3nc4ccccc4o3)nc12,100,/,/,-2.9,i,1,2
Cc1[nH]c2ccccc2c1N=Nc1cc(C(=O)O)cc(C(=O)O)c1,96,-20,148,/,i,1.3,-4
COc1ccccc1CN1CCNC(=O)C1CC(=O)NCc1cn(C)nc1C (stereo unspecified),97,-73,85,/,i,1,2
COCCNC(=O)c1cc(C)ccc1C,96,-10,98,/,i,0.95,-4

(continued)
SMILES	RGS16-Gao HTS	Insulin prom inh	Insulin prom inh cell count	GALR2 ag	HSV replic up	HSV replic up primary fold	PKD1 kinase inh
COC(=O)c1cccc(OCC(O)Cn2ccnc2)c1 (stereo unspecified)	104	/	/	-0.9	i	0.87	2
CCOc1ccc(-c2nnc(-c3ccc(OC)cc3)o2)cc1	11*	-111	80	-3.0	i	1.1	-15
O=C(NCCCO)/C(=C/c1ccc(-c2cccc([N+](=O)[O-])c2)o1)NC(=O)c1ccccc1	104	-93	143	/	i	0.93	-7
S=C1NCN(Cc2ccccc2)CN1C1CCCCC1	96	-136	156	/	i	0.91	0
CCOc1ccc(CC(=NCCc2ccccc2)C2=C(O)CC(C)(C)CC2=O)cc1OCC	101	-19	78	-0.8	i	1.1	1
CCCN(CCC)c1nc(NC2CCN(C(=O)OCC)CC2)nc(OC)n1	107	-35	128	-0.1	i	0.82	7
Cn1c(=S)c2[nH]c(SCCN3CCCC3)nc2n(C)c1=O	87	/	/	/	i	0.98	/
O=C1OCCC1Sc1nnc(-c2ccco2)n1-c1ccccc1 (stereo unspecified)	102	19	108	/	i	0.9	1
COc1cccc(C2CC(=O)Nc3c2c(=O)[nH]c2ncnn32)c1 (stereo unspecified)	99	/	/	/	i	0.99	-9
CC(=O)c1ccc(NC(=S)Nc2ccc3cn[nH]c3c2)cc1	89	/	/	/	i	0.9	6
COc1ccc(C(c2sc3nc(C)nn3c2O)N2CCC3(CC2)OCCO3)cc1 (stereo unspecified)	103	/	/	-1.1	i	1	-3
Cc1cc(C)cc(OCC(=O)N2N=C(C(F)(F)F)CC2(O)C(C)(C)C)c1 (stereo unspecified)	115	/	/	0.1	i	0.93	-8
CCOC(=O)/C(C#N)=C\c1cc(OC)c(OC)cc1[N+](=O)[O-]	104	/	/	/	i	0.97	-2
O=C(COC(=O)c1cc(=O)c2ccccc2o1)NCC1CCCCC1	98	/	/	/	i	0.97	6
CC1CCCC(C)N1C(=O)COC(=O)c1ccc[nH]c1=O (stereo unspecified)	94	25	96	-0.9	i	0.84	1
CC(=O)c1cccc(S(=O)(=O)NCC(c2ccco2)N2CCCCC2)c1 (stereo unspecified)	142	14	112	-2.2	i	1.1	1
CC(C)Oc1ccc(CCN=C(N)N=C(N)N)cc1Cl	48	-20	61	/	i	1	-7
CCCC(=O)O[C@]1(C(=O)CO)CC[C@H]2[C@@H]3CCC4=CC(=O)CC[C@]4(C)[C@H]3[C@@H](O)C[C@@]21C	103	14	113	1.4	i	0.99	-1
O=C1c2ccccc2C(=O)N1/N=C/c1ccc(Oc2ccc([N+](=O)[O-])cn2)cc1	103	-37	86	/	i	1.1	4
Cc1cccc(C(=O)N2CCC(=O)N(C(COCc3ccc(Cl)cc3)Cc3ccccc3)CC2)c1 (stereo unspecified)	101	-68	90	0.5	i	0.99	-11
CCOc1cc(C(=O)Nc2ccc(S(=O)(=O)NC3=NCCCCC3)cc2)cc(OCC)c1OCC	102	-11	92	/	i	0.9	-4
COc1ccccc1NC1=NC(C)(C)N=C(N)N1	110	-13	80	-0.5	i	0.93	-3
COC(=O)C1=C(C(=O)OC)[C@@H]2N(C)c3ccccc3[C@@]23C[C@@H](C(=O)OC)N(C(=O)c2cc(C)oc2C)C3=N1	98	/	/	/	i	0.83	/
CCN(Cc1ccccc1)C(c1cccc(C#N)c1)c1nnnn1C(C)(C)C (stereo unspecified)	98	-118	69	-0.7	i	1.2	-6
CC1CN(c2ccccc2)NC1=O (stereo unspecified)	104	/	/	/	i	1	-9
Later entries
SMILES	RGS16-Gao HTS	Insulin prom inh	Insulin prom inh cell count	GALR2 ag	HSV replic up	HSV replic up primary fold	PKD1 kinase inh
CCc1ccc(O)c(-c2cc(C(=O)Nc3cccnc3)[nH]n2)c1	95	/	/	/	i	0.73	/
COc1cccc(N2CCN(C(=O)Nc3ccccc3Cl)CC2)c1	100	/	/	/	i	0.98	-6
CCOC(=O)N1CCN(C(=O)c2ccc(N3C(=O)CCC3=O)cc2)CC1	101	-19	88	-0.8	i	1.1	-7
Cc1ccc(NC2(C#N)C(=O)Nc3ccccc32)cc1C (stereo unspecified)	100	20	134	/	i	0.97	-2
COc1ccc2c(CC(=O)O)cc(=O)oc2c1	103	/	/	/	i	1.1	/
O=[N+]([O-])c1ccccc1-c1ccc(C(=S)N2CCN(c3ccccc3)CC2)o1	115	/	/	/	i	1.2	/
COc1ccc(-c2csc(N3CCOCC3)n2)cc1OC	98	/	/	-0.9	i	0.93	14
Cc1nnc(N)nc1C	98	/	/	-0.7	i	0.95	0
O=C(Nc1ccc(Cl)cc1)Nc1ccc(S(=O)(=O)Nc2ncccn2)cc1	98	/	/	/	i	1	4
CC(=O)NC(Nc1nc2c(s1)CCCC2)(C(F)(F)F)C(F)(F)F	101	14	111	-1.4	i	1	-1
COc1ccc(C(=O)C2CCCN(Cc3sc(N4CCCC4)nc3Cl)C2)c(OC)c1 (stereo unspecified)	111	/	/	/	i	1	-10
COc1ccc(C2(C(=O)Nc3ccc(C)cc3)CCOCC2)cc1	105	/	/	/	i	0.99	0
Cc1ccc(OCCn2ccc(=O)[nH]c2=O)cc1C	105	/	/	0.8	i	0.8	0
CCN(CC)CCN1C(=O)C(O)=C(C(=O)c2cc3ccccc3o2)C1c1cccnc1 (stereo unspecified)	102	33	109	-0.2	i	1.1	-9
C=CCNC(=S)N/N=C(\C)c1cc(OC)c(OC)c(OC)c1	111	/	/	-0.1	i	1.2	5
O=C(Nc1nc(-c2cccnc2)cs1)c1ccccc1F	97	/	/	/	i	0.63	-1
COC(=O)c1ccc(Cn2c(O)c(N=NC(N)=S)c3ccccc32)o1	98	/	/	/	i	0.78	/
Cc1ccc(CSc2nnc(-c3cnccn3)n2C)cc1	99	/	/	/	i	1	/
Cc1nnc(N(Cc2ccco2)C(=O)c2ccc(C#N)cc2)s1	96	17	114	-2.4	i	0.99	-10
Cc1ccc(N=c2c([N+](=O)[O-])nn(-c3ccc(Cl)cc3)n2O)cc1C	103	/	/	/	i	1.1	1
Cc1ccc(C(=O)Nc2nc(COc3ccccc3)cs2)s1	/	3	57	-2.0	i	0.74	8
N#Cc1ccc(-c2csc(NNC(=O)c3ccc(Br)cc3)n2)cc1	138	36	89	-1.1	i	0.61	9
Cc1cc(C(=O)COc2ccccc2Cl)c(C)n1-c1ccc2c(c1)OCO2	89	3	68	-1.9	i	0.85	3
c1c2c(cc3sc(N4CCCCC4)nc13)OCCO2	115	-78	104	-1.9	i	0.91	-8
COC(=O)CSc1nc2cc(OC)ccc2cc1C#N	109	61	85	-2.9	i	0.93	2
The results go on:
SMILES	RGS16-Gao HTS	Insulin prom inh	Insulin prom inh cell count	GALR2 ag	HSV replic up	HSV replic up primary fold	PKD1 kinase inh
O=C(O)/C=C/C(=O)Nc1ccc(Oc2ccccc2)cc1	105	/	/	/	i	0.95	/
O=C(Cn1cc([N+](=O)[O-])cn1)NCc1ccco1	48	/	/	/	i	1	-1
CCCSc1nnc(NC(=O)Cc2ccc(OC)c(OC)c2)s1	108	9	212	/	i	0.9	0
[O-]/C(=C(\C(=S)Nc1cccc2ccccc12)[n+]1ccccc1)c1ccc(OC(F)F)cc1	96	/	/	/	i	1	-3
CCN(CC)c1ccc(C(=O)NNC(=O)CCl)cc1	105	25	95	/	i	0.98	-2
CC(C)(C)NC(=O)c1c(F)c(F)c(F)c(F)c1F	111	17	100	0.3	i	1	3
